Assay outcomes as filed in PubChem.
ugtP null kill: growth inhibition of ugtP-null S. aureus, primary screen, RN4220 ugtP deletion, OD600; 16 h; some inactives read as strong as hits; growth inhibition, % (concentration not given with the values); 330,000 tested, 0.54% active;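 active = z-score under -3 and OD600 up to 0.15 on both plates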;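 also: plate controls were untreated wells for no effect and antibiotic for full effect; wells of about 80 µL received 100 nL stock; the first replicate is given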
Mtb hypoxia rep: PubChem AID 1159583; M. tuberculosis hypoxia-regulated fluorescent reporter, fluorescence; fluorescence inhibition, % (no concentration beside the values); 300,000 tested, 0.1% active;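 active = 35 to 45% if threefold the growth effect, above 45% if 1.5-fold the growth effect; inactive = the rest, general growth blockers included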;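 also: wells of about 50 µL received 100 nL stock; 0% = vehicle wells and 100% = reference inhibitor wells; whole bacteria with a GFP reporter of the hypoxia response; strong numbers were not always called active; many hits fall short of the cut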
PrP 5UTR inh: inhibition of PrP 5' UTR reporter expression. AID 488862, 2010. 340,000 tested, 0.35% active. cell-based PrP 5' UTR mRNA reporter, plate reader. inhibition, % (test concentration not listed);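 active = every replicate at 50% or more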;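 also: 0 = median of the neutral control wells; tested in H4 reporter cells; numbers are from one replicate; inactives centre near -14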
BJeLR lethal: MLPCN primary cell-based screen for lethality selective to Ras in HRASV12 cells. BJeLR (HRASV12) viability, CellTiter-Glo ATP luminescence, 48 h; reference of the scale not given here. inhibition, % (no concentration beside the values). 300,000 tested, 0.17% active;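 active = replicate mean above 50%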;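 also: 50 nL library stock added to about 25 µL; numbers are from one replicate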
Bead autofluor: counter-screen for toxin protease inhibitors: compound fluorescence; compound autofluorescence counterscreen, microsphere flow cytometry; active compounds read high; fluorescence intensity (test concentration not listed); 360,000 tested, 3.1% active; AID 624483;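 active = at least 3 SD above the mean of all compounds, about 16000 in these data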;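 also: 100 nL of 1 mM stock went into each well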
RN4220 kill: growth inhibition of S. aureus RN4220, primary screen, OD600. inhibition, % (concentration not given with the values). 330,000 tested, 0.33% active. AID 1259311, 2017. 16 h;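 active = z-score of -3 or lower and OD600 up to 0.18 on both plates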;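 also: plate controls were untreated cells for no effect and reference antibiotic for full effect; stock transfer was 100 nL into about 80 µL; one replicate is shown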
Mtb hypoxia rep growth: further read-out of Mtb hypoxia rep, marked with its call; growth inhibition, %; measured here: M. tuberculosis growth (absorbance);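 0% = vehicle and 100% = reference antibiotic; read after six days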
* hit, by the source's call; . = not tested or not shown.

SMILES | ugtP null kill | Mtb hypoxia rep | Mtb hypoxia rep growth | PrP 5UTR inh | BJeLR lethal | Bead autofluor | RN4220 kill
CCOC(=O)C1=C(C)NC(=O)NC1c1c(O)ccc2ccccc12 (stereo not drawn) | 8 | 13 | 4 | -13 | -5 | 4261 | -0.5
OCC(Br)CBr (stereo not drawn) | 13 | 4 | -1 | -13 | . | 4213 | 4.4
O=C(COC(=O)Cc1ccccc1[N+](=O)[O-])NNC(=O)c1ccc([N+](=O)[O-])cc1 | -4 | -4 | 4 | -12 | . | 3798 | -3.5
Cc1ccc(C(=O)N/N=C/c2c(O)ccc3ccccc23)cn1 | . | . | . | 16 | 39 | 3086 | .
CCC(C)NS(=O)(=O)c1ccc(-c2csnn2)s1 (stereo not drawn) | -8 | . | . | -22 | 0 | 3173 | 1.8
COc1ccc(NC(=O)Nc2c[nH]c(=O)[nH]c2=O)cc1OC | 13 | 2 | 0 | -22 | 7 | 3510 | -2.1
CCCc1c(NC(=O)Nc2ccc(F)cc2)cnn1-c1ccc(Cl)cc1 | -28 | -3 | 4 | 5 | -4 | 4353 | -9.6
Cc1ccc2[nH]c(=O)c3cc(C(=O)NC(C)C)sc3c2c1 | -3 | 3 | 2 | -24 | 6 | 2898 | 2.8
CN(C)c1nc(N(C)C)nc(N2CC(=O)N(c3ccccc3)C2=N)n1 | 6 | -2 | 7 | -14 | -7 | 3959 | 2.1
CCOCCCNc1nc2c(C)cccn2c(=O)c1/C=C1\SC(=S)N(C(C)CC)C1=O (stereo not drawn) | 1 | 0 | -4 | -8 | 6 | . | 3.7
CCn1ncc(S(=O)(=O)NCc2ccccc2Cl)c1C | 4 | 8 | -2 | -13 | -3 | 5532 | 0.0
Cc1ccc(CCC(=O)Nc2ccc(CC(=O)O)cc2)o1 | 6 | 7 | 5 | 5 | 8 | 3854 | 2.3
COc1cc(C=NN(C)c2ccccc2)cc(Cl)c1O | -23 | 8 | 10 | . | . | . | -2.9
O=C(Nc1cc(C(F)(F)F)ccc1N1CCOCC1)c1ccc(Cl)nc1 | -21 | 0 | 11 | -12 | 4 | 3586 | -1.8
OCC#CCSc1nnc(-c2ccccc2Br)o1 | 5 | 41* | 22* | -41 | -10 | 8030 | 11
CC(=O)Nc1nc2c(c3c1c(=O)oc1ccccc13)CCCC2 | 2 | -1 | -1 | . | 2 | . | 2.0
CS(=O)(=O)c1ccc(Cl)c(NC(=O)COC(=O)/C=C/c2cnc3ccccc3n2)c1 | 3 | -3 | 6 | -15 | 4 | 5532 | 0.6
CCN(CC)c1ccc(C=NN2CCN(Cc3ccccc3Cl)CC2)cc1 | 1 | 0 | 8 | . | . | . | -1.1
CC1CCC2(CC1)NC(=O)N(CC(=O)c1ccc(Cl)s1)C2=O (stereo not drawn) | -1 | -4 | -1 | -21 | 4 | 5754 | 3.9
COc1ccc(S(=O)(=O)NC2(C(F)(F)F)N=C3SCCN3C2=O)cc1 (stereo not drawn) | 6 | . | . | 10 | 4 | 3508 | 12

Record cards (already shown). Order of screens: ugtP null kill | Mtb hypoxia rep | Mtb hypoxia rep growth | PrP 5UTR inh | BJeLR lethal | Bead autofluor | RN4220 kill
Shown for CS(=O)(=O)c1ccc(Cl)c(NC(=O)COC(=O)/C=C/c2cnc3ccccc3n2)c1 → 3 | -3 | 6 | -15 | 4 | 5532 | 0.6
Shown for Cc1ccc(CCC(=O)Nc2ccc(CC(=O)O)cc2)o1 → 6 | 7 | 5 | 5 | 8 | 3854 | 2.3
Shown for CC1CCC2(CC1)NC(=O)N(CC(=O)c1ccc(Cl)s1)C2=O (stereo not drawn) → -1 | -4 | -1 | -21 | 4 | 5754 | 3.9
Shown for CC(=O)Nc1nc2c(c3c1c(=O)oc1ccccc13)CCCC2 → 2 | -1 | -1 | . | 2 | . | 2.0
Shown for OCC#CCSc1nnc(-c2ccccc2Br)o1 → 5 | 41* | 22* | -41 | -10 | 8030 | 11

(more compounds)
SMILES | ugtP null kill | Mtb hypoxia rep | Mtb hypoxia rep growth | PrP 5UTR inh | BJeLR lethal | Bead autofluor | RN4220 kill
CCCS(=O)(=O)N1CCC(C(=O)NCCN2CCC(Cc3ccccc3)CC2)CC1 | 10 | 2 | 2 | -3 | 15 | 3611 | -0.4
Cc1ccc(C(=O)NCCCNC(=O)c2ccccc2F)cn1 | -3 | 9 | -6 | 1 | -8 | 3286 | 2.6
OCCN1CCN(Cc2cc(Br)cc(Br)c2O)CC1 | -6 | -9 | 9 | -7 | -11 | 10892 | 0.2
COc1ccc(CN2CCN(CC=C(C)C)C(CCO)C2)cc1Cn1cccn1 (stereo not drawn) | 5 | 9 | 3 | -26 | 10 | 2147 | 4.3
Cc1cnc(NC(=O)CN2CCN(c3ccccc3F)CC2)s1 | -17 | . | . | -28 | -2 | 4592 | 1.3
Cc1[nH]c(=O)[nH]c(=O)c1/C=N/NC(=O)[C@H](C)N | . | . | . | -2 | -5 | 4772 | .
CCN(CC(=O)NCc1cccs1)C(=O)c1cccc(S(=O)(=O)N(C)C)c1 | 0 | 5 | 6 | -28 | . | 3395 | 1.5
COc1ccc(OC)c(C(=O)CSc2nnc(-c3cccs3)n2C)c1 | -4 | 15 | 10 | -26 | 0 | 4161 | -9.2
CCn1c(CNc2ccc(OC)cc2)nnc1SCC(=O)c1ccc(OC)cc1 | 2 | 7 | 11 | -17 | -15 | 3088 | 3.8
Cc1nn(C)cc1CN(C)C(=O)CC12CC3CC(CC(C3)C1)C2 | 0 | 18 | 5 | -12 | 2 | 2196 | 10.0
CC1(C)CC(=O)C2=C(C1)N(CC1CCCO1)C(=O)C2(NC(=O)c1cccnc1)C(F)(F)F (stereo not drawn) | 10 | 0 | 1 | -23 | -7 | 17055* | 4.5
O=C(COc1ccccc1Cl)N1CCCC1 | 3 | . | . | -15 | -5 | 3131 | 2.4
CCOC(=O)Cn1c2ccc(C)cc2c2nc(C)sc21 | 4 | 9 | -6 | -8 | 30 | 3285 | 1.4
Cc1ccccc1-n1c(-c2cccnc2)n[nH]c1=S | 3 | 3 | 11 | -34 | 11 | 11128 | 2.3
CCCCCCc1ccc(OC(=O)c2ccncc2)cc1 | 8 | 13 | 3 | -24 | 2 | 4266 | 4.4
COC(=O)C1=C(c2ccc(F)cc2F)C[C@@H]2CC[C@H]1N2C(=O)N1CCC(O)(c2ccc(Cl)cc2)CC1 | -13 | 2 | 12 | -11 | . | 2977 | -4.9
COc1ccc(S(=O)(=O)CCC(=O)Nc2c(C)cccc2C)cc1 | -8 | 10 | -1 | -2 | -5 | 4072 | 4.4
O=C(Nc1cccc(Cl)c1)Nc1ccc2c(c1)OCO2 | -26 | 1 | 1 | -95 | -20 | 4148 | -5.2
CCC1(CC)NC(=O)N(CC(=O)Nc2cccc3ccccc23)C1=O | 9 | 4 | -8 | -6 | . | 4711 | 3.5
CC(C)n1ncc2c(C(=O)N3CCN(Cc4ccc(Cl)s4)CC3)cc(C3CC3)nc21 | -1 | 7 | 11 | -22 | . | 3516 | 4.8
N#C/C(=C\c1cccnc1)C(=O)Nc1ccc(SC(F)F)cc1 | 16 | 18 | -2 | -12 | 12 | 3834 | 2.0
CN1CCN(S(=O)(=O)c2ccc3c(c2)OCCO3)CC1 | 2 | 6 | -4 | -21 | -3 | 3088 | 0.5
O=C(COC(=O)C1=COCCO1)Nc1ccc([N+](=O)[O-])cc1C(F)(F)F | 8 | -5 | 0 | -18 | . | 6451 | 7.4
O=C1C2CC=C(Cl)CC2C(=O)N1CNc1ccccn1 (stereo not drawn) | 9 | -3 | 0 | -5 | -19 | 2490 | 4.4
COc1ccc(CCC(=O)NCc2cn3ccccc3n2)cc1 | 1 | 5 | 12 | -14 | -11 | 5608 | 3.0
CCOc1ncccc1C(=O)N(C)CC1COc2ccccc2O1 (stereo not drawn) | 2 | 13 | 7 | -19 | -3 | 3080 | 1.2
NC(=S)NNC(=O)c1ccccc1 | -1 | 3 | 9 | -27 | -4 | 24370* | 5.7
CCOc1ccc(OCc2ccc(C(=O)O)o2)cc1 | 5 | 7 | 0 | -52 | 6 | 3049 | 4.4
COc1ccc(C(=O)Nc2ccc(N3CCCC3)cc2)cc1 | -5 | . | . | -14 | -3 | 3925 | 1.7
CC1CCCCC12NC(=O)N(CC(=O)Nc1ccccc1N1CCOCC1)C2=O (stereo not drawn) | 1 | 11 | 5 | -2 | -8 | 3397 | 1.7
O=C(COc1ccccc1)Nc1ccc(S(=O)(=O)Nc2ncccn2)cc1 | 3 | 11 | 7 | -24 | 1 | 4732 | 9.8
CCCC(=O)Nc1ccc(-c2csc(N/N=C\c3ccncc3)n2)cc1 | . | . | . | -35 | 1 | 2800 | .
CC(=O)Nc1ccc(C(=O)OCC(=O)Nc2ccc(S(=O)(=O)N3CCOCC3)cc2)cc1 | 3 | 3 | 4 | -19 | . | 3462 | 0.8
CC(=O)Nc1ccc(NC(=O)COC(=O)c2c3c(nc4ccccc24)CCN(Cc2ccccc2)C3)cc1 | 1 | -11 | 0 | -15 | -8 | 2890 | 5.9
CSc1nnc(Cc2cc(=O)[nH]c(=O)[nH]2)n1-c1cccc(C)c1 | 8 | 2 | 0 | -12 | -4 | 4424 | 2.3
CC(=O)n1cc(C2C=C(C(N)=O)OC(OCc3ccc(CO)cc3)C2)c2ccccc21 (stereo not drawn) | 11 | 18 | 9 | . | . | . | 7.7
COc1ccc(OC)c(NC(=O)COC(=O)/C=C/c2ccccc2Cl)c1 | -9 | 6 | 4 | -86 | -16 | 2074 | 4.5
COc1cccc(Nc2c3c(nc4c(-c5ccccc5)c(C)nn24)CCC3)c1 | -3 | 7 | 2 | -28 | -3 | 2321 | -14
CCC(=NNC(=O)c1cc(C2CC2)[nH]n1)c1ccccc1 | 2 | 5 | -4 | . | . | . | 4.2
COc1ccc(C2OCC3(CO2)SC(=O)NC3=O)cc1 (stereo not drawn) | 16 | 15 | 8 | -21 | 14 | 2485 | 1.6
CCOc1ccc(C=NNC(=O)c2cccc3ccccc23)c(OCC)c1 | -1 | -5 | 12 | . | . | . | 3.2
O=S1(=O)CCO[C@H]2Cc3ccccc3[C@H]2N1Cc1ccccc1F | . | . | . | -19 | 2 | 3539 | .
Cc1ccccc1Cn1nnc(C(=O)Nc2ccc3c(c2)OCCO3)c1N | -4 | 13 | 8 | -78 | -14 | 5526 | 0.3
S=c1[nH]nc(-c2cccnc2)n1/N=C/C=C/c1ccccc1 | . | . | . | 1 | -8 | 2011 | .
O=C(O)CCCCCN1C(=O)/C(=C\c2ccncc2)SC1=S | 6 | -1 | 16 | 5 | 0 | 2532 | 6.6
COc1ccc(N=Cc2sc3ccccc3c2Cl)cc1 | 4 | 3 | 6 | -32 | 15 | 7807 | 2.6
O=C(COC(=O)C1=NN(c2ccccc2)C(=O)CC1)NCc1ccccc1Cl | 5 | 18 | 9 | -24 | . | 3606 | 3.6
CC1CCCN(C(=O)c2ccc(COc3ccccc3Br)cc2)C1 (stereo not drawn) | -11 | . | . | -12 | 1 | 5526 | 1.5
N#Cc1c(N=CN2CCCC2)oc(-c2ccccc2)c1-c1ccccc1 | 25 | 14 | 5 | . | . | . | 5.2
Nc1[nH]n2c(=O)c3c(nc2c1N=Nc1ccccc1)CCCC3 | -4 | . | . | -22 | 7 | 2224 | 13
N#Cc1ccc(Cl)cc1NC(=O)COC(=O)[C@H](CCC(N)=O)NC(=O)c1ccc(F)cc1 | 15 | -5 | 2 | -10 | 1 | 2446 | 2.1
COCCNc1nc(C)c(C(C)=O)s1 | . | . | . | -20 | 1 | 4614 | .
CNc1c([N+](=O)[O-])cnn1-c1cccc(Cl)n1 | -5 | 15 | 1 | -15 | 11 | 3316 | 0.7
COc1ccccc1-n1c(SCC(N)=O)nc2sc3c(c2c1=O)CCC3 | 3 | -7 | -3 | -10 | 1 | 4104 | 3.0
CCN(C(=O)COC(=O)/C=C/c1ccc(C)o1)c1c(N)n(Cc2ccccc2)c(=O)[nH]c1=O | 3 | -1 | 5 | -15 | . | 6941 | 1.2
CCOc1ccc(N2C(=O)CC(Sc3ncccn3)C2=O)cc1 (stereo not drawn) | 0 | 5 | 1 | -28 | 5 | 9424 | 3.3
Cc1ccc(C=NNC(=O)C2(C)CC2(Br)Br)cc1 (stereo not drawn) | -12 | 10 | 0 | . | . | . | 6.7
COCCSc1ccccc1C(=O)Nc1ccc2c(c1)OCCO2 | -2 | . | . | -26 | -9 | 2247 | -7.6
CC(=NNc1ccc(C(=O)O)cc1)c1ccc(Br)cc1 | 11 | 8 | 2 | . | . | . | 3.5
